Vaccinia mCherry = inhibitors of vaccinia virus infection (mCherry reporter signal); Vaccinia virus mCherry reporter infection, fluorescence; about a quarter of the inactives have no number; Potency, µM (highest dose often 36.5 µM), inactives show top-dose activity change, negative = inhibition, actives largely listed as inhibitors; hit rate 0.63% among 310,000; active = well fitted inhibition curve with a large enough effect; inconclusive = small, poorly fitted or top-dose-only effect; inactive = no such curve, though single readings can be large or run the other way; tested in A549 cells; also: nearly all actives have a fitted effect of over 35% in size; inactives centre near -10
Vaccinia Venus = vaccinia inhibition (Venus reporter) | Vaccinia virus Venus reporter expression, fluorescence | Potency, µM (doses to about 36.5 µM), inactives show top-dose activity change, negative = inhibition, usual class: inhibitors | hit rate 0.46% among 330,000 | AID 720580; active means well fitted inhibition curve with a large enough effect; inconclusive means small, poorly fitted or top-dose-only effect; inactive means no such curve, though single readings can be large or run the other way; tested in A549 cells; also: nearly all actives have a fitted effect of over 30% in size; inactives centre near -10
An asterisk follows results filed as active; i = inactive; ? = inconclusive; nt = not tested or not shown; & = joins results of further samples; [ ] = remark or other dose. % is scaled to controls: 0 for no effect and ±100 for the full control effect; potency is read from the fitted curve at half-maximal effect.

SMILES	Vaccinia mCherry	Vaccinia Venus
CC(C)CC(N)c1csc(NC(=O)C(c2ccccc2)c2ccccc2)n1 (centres undefined)	?	?
COc1ccc(C(=O)OCC(=O)NCC2CCCCC2)cc1F	-5%	-11%
Cc1cc(NC(=O)CSc2nnc(-c3ccc(Br)o3)n2Cc2ccccc2)no1	nt	-12%
Fc1ccc(-c2csc3ncnc(N4CCN(c5ccccc5)CC4)c23)cc1	-20%	-5%
O=C(c1cc2c(s1)CCCC2)N1CCN(S(=O)(=O)c2ccccc2C(F)(F)F)CC1	-1%	-10%
COc1ccc(S(=O)(=O)N2CCC(C(=O)Nc3nnc(C)s3)CC2)cc1OC	-21%	-12%
COC(=O)[C@@]1(C(C)C)N=C(c2cc(OC)c(OC)c(OC)c2)[C@]2(O1)C(=O)N(Cc1ccc(OC)cc1)c1ccc(Br)cc12	7%	4%
c1ccc2c(C[C@@H]3CNCCN3CC3CCCCC3)cccc2c1	?	?
Cc1ccnc(NC(=O)CCC(=O)N(CC(=O)NCc2ccccc2)Cc2ccc(F)cc2)c1	i	-3%
CC1CCN(S(=O)(=O)c2ccc3c(c2)oc(=O)n3CC(=O)N2CCCCC2)CC1	-10%	-7%
C#CCOCCOCCOCCNc1nc(N2CCN(C(=O)[C@H]([C@@H](C)CC)n3cc([C@@H](N)CC(C)C)nn3)CC2)nc(N2CCN(C(=O)[C@H](Cc3ccc(O)cc3)n3cc([C@@H](N)C(C)CC)nn3)CC2)n1 (some centres undefined)	-8%	-14%
CN(CCO)C(=O)c1cn(C2CCN(Cc3cccc(C(F)(F)F)c3)CC2)nn1	-2%	-5%
C=CCNc1scc(-c2ccccc2)[n+]1CC=C	-12%	-10%
O=C(CC12CC3CC(CC(C3)C1)C2)NCC(=O)N1CCc2ccccc2C1	-22%	-15%
COc1cccc(NC(=O)CN(C)C(=O)C(C)Sc2ccccc2)c1 (centres undefined)	i	-9%
O=C(Nc1c(C(=O)N2CCN(c3ccc(F)cc3)CC2)oc2ccccc12)c1ccco1	-5%[7.34 µM]	-2%[7.34 µM]
Clc1cccc(-c2ccc(/C=N/n3cnnc3)o2)c1Cl	nt	-26%
COc1ccccc1CNC(=O)[C@H](C)NC(=O)[C@@H]1Cc2ccccc2CN1	-12%	0%
COc1ccccc1Cc1c(-c2cccc(Br)c2)nc2ccc(Cl)cn12	2%	-10%
CCCSC1=C(C#N)C2(CCCCC2)C(C#N)=C(N)N1	-28%	-20%
Cc1nn(-c2ccc(F)cc2)c2sc(C(=O)N3CCCCCC3)cc12	nt	-27%
O=c1c2sc(-c3ccccc3)cc2nc2n1CCC2	-30%	-20%
C#CCOC(=O)C[N+](C)(C)CC=C	i	3%
Cc1cc(C)cc(OCC(=O)N(Cc2ccco2)Cc2ccccc2Cl)c1	-11%	-6%
O=C(Cc1cccs1)N1CCN=C1SCc1ccccc1F	-14%	-3%
CC(Oc1ccccc1)C(=O)Nc1cccc(-c2cn3cccnc3n2)c1 (centres undefined)	-18%	-12%
O=C(CC[C@H]1O[C@@H](n2cnc3c(NC(=O)c4ccccc4)ncnc32)[C@H](O)[C@@H]1O)NCC1CCCCC1	i	2%
CCc1ccc(NC(=O)c2ccc(CN3CC(=O)N4CCCCC4C3=O)cc2)cc1 (centres undefined)	-17%	-16%
NC(=O)C1CCN(c2oc(-c3cccs3)nc2S(=O)(=O)c2ccc(Cl)cc2)CC1	-10%	-7%
O=C1c2ccccc2C(=O)N1Cc1nc2ccccc2o1	i	0%
CC1(C)CC(=O)C(N=Nc2ccc(S(=O)(=O)N3CCOCC3)cc2)=C(O)C1	-28%	-8%
COc1ccc(C2C(=O)N(C3CCCCC3)CC(=O)N2CCc2ccc(C)cc2)cc1OC (centres undefined)	-3%	9%
CCc1nc2ccc(C(=O)N(C)CC(=O)Nc3ccc(Cl)c(C(F)(F)F)c3)cc2nc1CC	-5%	-27%
CCn1c2ccccc2c2cc(NC(=O)c3cccc(OC)c3OC)ccc21	-10%	?
COc1ccccc1-c1ccc2c(c1)O[C@@H](CN(C)C(=O)Nc1cccc(F)c1)[C@H](C)CN([C@H](C)CO)S2(=O)=O	0%	-28%
COc1cccc(NC(=O)Cc2ccc(C)cc2)c1	i	-3%
CS(=O)(=O)c1ccc2nc(N)sc2c1	-13%	-7%
Cc1ccc(N2CCN(S(=O)(=O)c3ccc4c(c3)NC(=O)C(C)C(=O)N4)CC2C)cc1 (centres undefined)	-28%	?
CC1(C)Cc2nc3nc(SCC(=O)Nc4ccccc4)nc(N)c3cc2CO1	-10%	-4%
COCn1ccnc1C(O)(c1ccc(OC)cc1)c1ccc(OC)cc1	-5%	-2%
CC1=C(C#N)C(/C=N/OCc2ccc(F)cc2Cl)CC(=O)N1 (centres undefined)	-17%	-9%
COc1ccc(N2CCN(C(=S)Nc3cccc(C)c3C)CC2)cc1	-4%	-11%
COC(=O)[C@H]1C[C@H]1[C@@H](NC(=O)c1cccnc1)c1ccccc1	i	-15%
CC(C)C[C@H](NC(=O)C1CCN(S(=O)(=O)c2ccccc2)CC1)C(=O)NCc1ccccn1	i	-7%
Cc1ccc(NC(=S)N(Cc2cccs2)Cc2cc3cc(C)cc(C)c3[nH]c2=O)cc1	-15%	-10%
CC1(NC(=O)C2CCN(C(=O)Nc3ccccc3)CC2)CCS(=O)(=O)C1 (centres undefined)	-12%	-15%
CCOCCCNC(=O)c1cc(Sc2nnc(C)s2)nc2ccccc12	-6%	-12%
CC(C)(C)OC(=O)C[C@H]1C/C=C\C[C@H](CC(=O)N[C@H](CO)Cc2ccccc2)C(=O)N[C@H](C(C)(C)C)COC1=O	0%	-31%
C=CCn1c(O)c2ccc(C(=O)N=NC(=O)COc3ccc(OC)cc3)cc2c1O	i	-9%
COc1ccccc1-n1c(SCC(=O)Nc2ccccc2C)nc(O)cc1=O	-20%	-7%
Cc1cccc(Nc2cc(=O)n(C)c(=O)n2C)c1	i	-12%
C=C1C=C(C(F)F)n2ncc(C(=O)NCc3ccc(Cl)cc3Cl)c2N1	-21%	-13%
CCOC(=O)[C@]12CCCC=C1N(Cc1ccco1)C(=O)[C@H](CC(=O)NCc1cccc(C(F)(F)F)c1)C2	-27%	-14%
COc1ccc(N2CCN(C(=O)NCc3cccc(OC)c3)CC2)cc1	-10%	-12%
CS(=O)(=O)c1ccc(CNC(=O)[C@]2(C(F)(F)F)C[C@H](CCc3ccccc3)CCCO2)cc1	-11%	-21%
Cc1ccc2nc(N3CCN(C(=O)c4ccco4)CC3)c3nncn3c2c1	-5%	2%
CC(C)[C@H](NC(=O)c1cccc(CN(Cc2ccccc2)C(=O)c2ccccc2)c1)C(=O)O	-21%	-16%
CNc1ccc2ncc(-c3ccccc3NC(C)=O)n2n1	23%	-4%
O=C1CCN(Cc2ccc(Cl)cc2Cl)C(=O)N1	-15%	5%
COc1ccc(Cc2nnc(SCC(=O)Nc3ccc(C)cc3C)[nH]c2=O)cc1	i	-15%

Continued.
SMILES	Vaccinia mCherry	Vaccinia Venus
Cc1cc(C)nc(Sc2ccc([N+](=O)[O-])cc2[N+](=O)[O-])n1	-29%	-13%
CCOc1ccc(Nc2nc(Cc3nnc(SCC(=O)O)o3)cs2)cc1	i	-9%
COc1cccc(CN(c2ccc3c(c2)CCC3)S(=O)(=O)c2ccc(-n3cnnn3)c(OC)c2)c1	-8%	-6%
C=CCn1c(C(C)NC(=O)CCC)nc2ccccc21 (centres undefined)	2%	8%
Cc1ccc(-n2c3c(cc(C(=O)O)c2=O)C(=O)CC(C)(C)C3)cc1	i	-5%
O=C(c1cnn(-c2ccc(F)cc2)c1-n1cccc1)N1CCN(c2ccc(Cl)cc2)CC1	-12%	-21%
CCCn1c(SCC(=O)NC2CCCCC2)nnc1C1CC1	-1%	-20%
Nc1nc(-c2ccccc2)cc(N2CCCCC2)n1	-23%	?
O=C(Nc1ccc(C2=NCCN2)cc1)c1ccc(C(=O)Nc2ccc(C3=NCCN3)cc2)c([N+](=O)[O-])c1	-6%	8%
Cc1cc(NC(=O)C(C)SCC(=O)N(C)Cc2c(F)cccc2Cl)no1 (centres undefined)	-12%	6%
Cc1cc(C)c2sc(N3CCN(C(=O)c4ccc(N(C)C)cc4)CC3)nc2c1	-1%	-8%
O=C(CNC(=S)NC(=O)c1cccc([N+](=O)[O-])c1)c1ccccc1	-15%	-9%
CCCCOC(=O)c1ccccc1C(=O)OCCCC	36%[activator]	7%
O=C(COC(=O)c1cc([N+](=O)[O-])ccc1N1CCOCC1)NC1CCS(=O)(=O)C1 (centres undefined)	i	-17%
O=C(O)C1(O)CC(O)C(O)C(O)C1 (centres undefined)	i	-8%
O=C(CSc1ccc(-c2ccncc2)nn1)N1CCCCC1	-8%	-6%
Cn1c(=O)c(C(=O)CCl)c(N)n(CC2CC2)c1=O	?	?
Cc1ccc(Nc2nc(NCc3cccs3)nc3ccsc23)c(C)c1	-11%	?
Cc1ccc(C2=NN(CC(=O)NCCc3ccc(Cl)cc3)C(=O)CC2)cc1	-9%	-11%
CC(C)(C)NC(=O)Cn1cc(S(=O)(=O)Cc2ccc(F)cc2)c2ccccc21	-14%	1%

2 entries from above, field by field:
O=C(c1cnn(-c2ccc(F)cc2)c1-n1cccc1)N1CCN(c2ccc(Cl)cc2)CC1
  Vaccinia mCherry: -12%; Vaccinia Venus: -21%

CCCn1c(SCC(=O)NC2CCCCC2)nnc1C1CC1
  Vaccinia mCherry: -1%; Vaccinia Venus: -20%

Remaining list, next part
SMILES	Vaccinia mCherry	Vaccinia Venus
COc1ccc(OC)c(CNC(=O)CN(c2ccc(C)cc2)S(=O)(=O)N(C)C)c1	4%	-3%
CCOc1ccccc1NC(=O)CSc1nc2ccccc2nc1N1CCOCC1	-5%	-5%&0%
CCC(=O)Nc1ccc(NC(=O)CSc2nnc(-c3ccco3)n2C)cc1	-2%	-9%
O=C(NCCS(=O)(=O)NCc1ccccn1)c1ccccc1	-11%	-4%
C[C@@H]1COc2cc(N3CCN(C)CC3)ccc2S(=O)(=O)N1	49%[activator]	2%
Cn1c(=O)c2c(nc(Oc3cccc(O)c3)n2C)n(C)c1=O	-14%	-2%
Cc1ccccc1C(=O)NC1CC2CCCC(C1)N2Cc1ccccc1Cl (centres undefined)	i	-22%
Cn1nnnc1SCC(=O)N(C1CCCCC1)C1CCCCC1	-8%	-4%
CC(OC(=O)COc1ccc(C#N)cc1)C(=O)Nc1ccc(Cl)cn1 (centres undefined)	-13%	5%
O=C(COC(=O)c1n[nH]c(=O)c2ccccc12)c1ccc(Cl)cc1	-14%	-4%

In the list so far, 15 have a Cl atom.
SMILES	Vaccinia mCherry	Vaccinia Venus
Clc1cccc(-c2ccc(/C=N/n3cnnc3)o2)c1Cl	nt	-26%
COc1ccccc1Cc1c(-c2cccc(Br)c2)nc2ccc(Cl)cn12	2%	-10%
Cc1cc(C)cc(OCC(=O)N(Cc2ccco2)Cc2ccccc2Cl)c1	-11%	-6%
NC(=O)C1CCN(c2oc(-c3cccs3)nc2S(=O)(=O)c2ccc(Cl)cc2)CC1	-10%	-7%
CCc1nc2ccc(C(=O)N(C)CC(=O)Nc3ccc(Cl)c(C(F)(F)F)c3)cc2nc1CC	-5%	-27%
CC1=C(C#N)C(/C=N/OCc2ccc(F)cc2Cl)CC(=O)N1 (centres undefined)	-17%	-9%
C=C1C=C(C(F)F)n2ncc(C(=O)NCc3ccc(Cl)cc3Cl)c2N1	-21%	-13%
O=C1CCN(Cc2ccc(Cl)cc2Cl)C(=O)N1	-15%	5%
O=C(c1cnn(-c2ccc(F)cc2)c1-n1cccc1)N1CCN(c2ccc(Cl)cc2)CC1	-12%	-21%
Cc1cc(NC(=O)C(C)SCC(=O)N(C)Cc2c(F)cccc2Cl)no1 (centres undefined)	-12%	6%
Cn1c(=O)c(C(=O)CCl)c(N)n(CC2CC2)c1=O	?	?
Cc1ccc(C2=NN(CC(=O)NCCc3ccc(Cl)cc3)C(=O)CC2)cc1	-9%	-11%
Cc1ccccc1C(=O)NC1CC2CCCC(C1)N2Cc1ccccc1Cl (centres undefined)	i	-22%
CC(OC(=O)COc1ccc(C#N)cc1)C(=O)Nc1ccc(Cl)cn1 (centres undefined)	-13%	5%
O=C(COC(=O)c1n[nH]c(=O)c2ccccc12)c1ccc(Cl)cc1	-14%	-4%

High-throughput results: PubChem, National Center for Advancing Translational Sciences (NCATS)

No enrichment for hits (roughly 0.88% active in at least one column).
